# CSC inhib – blocks cancer stem cells | cancer stem cell-like cells viability, luminescence | inhibition, % at 7.5 µM | 300,000 compounds, 1.1% hits;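 active means mean at 75% or more and at least half the replicates too; tested in HMLE shEcad cells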;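 further: 0% = median of negative and 100% = median of positive control wells; the first replicate is given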
# Rce1 inh – blocks yeast Ras-converting enzyme | calls only | yeast membranes, quenched prenylated peptide cleavage fluorescence | 290,000 compounds, 0.27% hits | Q03530;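 active means fall in fluorescence gain of 50% or more versus controls, with final raw signal at or below 3038400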;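 further: plate controls were neutral control wells for no effect and wells lacking membranes for full effect; tested at 10 µM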
# Target sequence (Q03530 whole entry, looked up): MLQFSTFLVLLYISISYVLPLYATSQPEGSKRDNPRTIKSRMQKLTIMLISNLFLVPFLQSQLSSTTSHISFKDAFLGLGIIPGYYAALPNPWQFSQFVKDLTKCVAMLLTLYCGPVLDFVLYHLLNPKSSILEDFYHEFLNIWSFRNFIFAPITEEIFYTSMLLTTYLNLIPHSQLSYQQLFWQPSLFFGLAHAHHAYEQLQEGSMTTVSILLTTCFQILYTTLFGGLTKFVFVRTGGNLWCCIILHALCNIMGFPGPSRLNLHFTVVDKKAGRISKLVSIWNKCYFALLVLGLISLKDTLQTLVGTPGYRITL
# eIF4H FP inh – inhibitors of RNA binding by human eIF4H | eIF4H fluorescence polarization binding assay | Q15056 | inhibition, % at 35 µM | 290,000 compounds, 0.94% hits;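 active means 50% or more with normal probe brightness, or confirmed in later tests; about a fifth of its hits are not listed in these tables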;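 further: calls also rest on retests at 20 µM and on dose response follow-up; 0% = protein and probe with vehicle and 100% = probe without protein; strong numbers were not always called active; many hits fall short of the cut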
# Env fusion inh – HIV envelope-mediated fusion inhibition; HeLa-JRFL Env/CEM21 cell fusion, luciferase; inhibition, % at 12.3 µM; 360,000 compounds, 1.1% hits;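 active means mean replicate inhibition score of at least 50 and every replicate individually at or above 50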;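 further: 0% = plate neutral controls and 100% = maraviroc near 300 nM; one replicate is shown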
# PABP FP inh – PABP-poly(A) binding inhibition; P11940; PABP-poly(A) RNA binding, fluorescence polarization; inhibition, % at 35 µM; 290,000 compounds, 1% hits;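 active means 50% or more with normal probe brightness, or confirmed in later tests; about a fifth of its hits are not listed in these tables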;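 further: calls also rest on retests at 20 µM and on dose response follow-up; controls were probe without protein and protein plus probe with vehicle; some compounds called inactive have numbers as strong as hits; many hits fall short of the cut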
# Target sequence (P11940 whole entry, looked up): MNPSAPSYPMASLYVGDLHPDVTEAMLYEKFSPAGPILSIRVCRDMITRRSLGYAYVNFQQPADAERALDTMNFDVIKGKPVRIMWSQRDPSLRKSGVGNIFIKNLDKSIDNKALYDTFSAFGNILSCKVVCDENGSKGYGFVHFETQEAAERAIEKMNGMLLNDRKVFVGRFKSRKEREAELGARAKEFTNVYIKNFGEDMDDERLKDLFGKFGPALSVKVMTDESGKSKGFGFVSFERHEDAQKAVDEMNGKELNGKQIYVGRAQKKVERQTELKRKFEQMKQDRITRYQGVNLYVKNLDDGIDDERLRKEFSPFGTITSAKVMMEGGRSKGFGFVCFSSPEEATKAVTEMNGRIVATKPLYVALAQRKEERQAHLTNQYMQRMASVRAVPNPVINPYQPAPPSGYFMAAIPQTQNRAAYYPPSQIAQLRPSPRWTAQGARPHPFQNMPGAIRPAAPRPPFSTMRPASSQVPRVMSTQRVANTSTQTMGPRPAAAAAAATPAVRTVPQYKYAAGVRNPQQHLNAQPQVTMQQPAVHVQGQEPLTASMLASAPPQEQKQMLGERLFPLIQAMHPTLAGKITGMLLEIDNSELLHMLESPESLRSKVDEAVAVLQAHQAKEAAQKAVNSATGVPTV
# MT1-MMP act inh – inhibitors of human MT1-MMP activation; HT1080 RFP-PRO-GFP cells, GFP/RFP ratio fluorescence, overnight; percent of plate control window, DMSO zero; AID 651647; GFP/RFP ratio change, % at 20 µM; 360,000 compounds, 0.061% hits; P50281;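 active means GFP/RFP ratio change of at least 30% with cell ATP level not reduced by more than half and red fluorescence within 50% of control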; further: strong numbers were not always called active
#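 Read-out: GFP/RFP fluorescence ratio; Test system: RFP-PRO-GFP reporter HT1080 cells; Compound dosing: single-point 20 µM compound, 1% DMSO; Times: overnight compound exposure at 37 °C.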
# UUG fidelity – modulators of start codon recognition fidelity in yeast; S. cerevisiae UUG-firefly luciferase reporter, luminescence/redox ratio; activity score, % at 18.7 µM; 350,000 compounds, 0.13% hits;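 active means replicate mean at a twofold rise or more, about +100% in these data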;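 further: firefly luciferase made from a UUG start codon reports start codon fidelity; reporter light over untreated wells divided by growth signal over untreated wells; some hits fall short of that in this replicate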
# eIF4H FP inh retest – recorded beside eIF4H FP inh, whose call it bears; inhibition, %; compound at 20 µM; confirmation average;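 mean of two retest wells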
# PABP FP inh retest – recorded beside PABP FP inh, whose call it bears; inhibition, %; compound at 20 µM; confirmation repeats;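 mean of two retest wells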
# MT1-MMP act inh RFP – second read-out of MT1-MMP act inh, no call of its own (marks repeat the call); RFP signal change, %; measured here: RFP expression control read;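 0 = vehicle wells; hits needed this value within 50% of zero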
# An asterisk follows results filed as active; i = inactive; / = no result given. The order is random; about 3% have a hit in one of these screens.
SMILES,CSC inhib,Rce1 inh,eIF4H FP inh,Env fusion inh,PABP FP inh,MT1-MMP act inh,MT1-MMP act inh RFP,UUG fidelity,others
Cc1ccc(C(C)C)c(OCCN(C)C)c1,-3,i,9,-53,34,-1,6,-6,
COc1ccc(/C=C/C(=O)C2(O)CCCCC2)cc1OC,7,i,-13,-3,-7,4,-3,-11,
COc1ccc(C2c3cc(OC)c(OC)cc3CCN2C(=O)c2ccccc2)cc1OC (stereo unspecified),-17,i,-6,17,-1,3,-7,-1,
CCOC(=O)C1CCN(C(=O)CN(c2cc(OC)ccc2OC)S(=O)(=O)c2ccccc2)CC1,-10,i,-7,/,1,3,2,28,
Cc1ccc(C)c(OCC(=O)O/N=C(\N)c2cccnc2)c1,/,i,3,-24,-8,5,-1,-15,
CCOC(=O)c1nnc(-c2ccc(C)cc2)nc1Sc1ccccc1Cl,53,i,-6,/,0,-5,-7,-12,
CCC(=O)N(C)CCc1cc2c(c(OC)c1/C=N/NC(=O)c1ccccc1O)OCO2,-22,i,-2,-18,-4,3,2,-10,
CN1CCN(CCCNC(=O)Cn2ncc3c4ccccc4n(C)c3c2=O)CC1,5,i,8,1,1,2,-2,-21,
O=C(/C=C/[C@H]1O[C@@H](n2cnc3c(NC(=O)c4ccccc4)ncnc32)[C@H](O)[C@@H]1O)NCc1ccc2c(c1)OCO2,/,/,/,-14,/,4,4,-9,
O=C(Nc1cccc(NC(=O)c2nccc3ccccc23)c1)c1ccco1,13,/,-5,/,-4,1,4,/,
O=C(COc1ccccc1F)Nc1cc(S(=O)(=O)N2CCOCC2)ccc1N1CCOCC1,13,i,0,-9,-5,1,0,-5,
Cc1cccc(C)c1NC(=O)C1(C)CCC(=O)N1C1CC1 (stereo unspecified),/,/,/,4,/,5,3,29,
COc1cccc(C(=O)NC2CCCc3c2cnn3-c2ccc(C)c(C)c2)c1OC (stereo unspecified),-3,i,-9,2,0,2,-8,-15,
COc1ccc(NC(=O)N2CCC(c3ccccc3)C2)c(OC)c1 (stereo unspecified),-5,i,-10,-3,1,2,2,-19,
CCOC(=O)C1=C(COC(=O)c2ccc(OC(C)C)cc2)NC(=O)NC1C (stereo unspecified),-12,i,/,-10,/,4,1,0,
Cc1ccc(C(O)c2ncc(-c3cccc4ccccc34)[nH]2)cc1F (stereo unspecified),/,/,/,-3,/,2,-3,-18,
O=C(Nc1ccc(N2CCOCC2)cc1)c1cccc(-n2cnnc2)c1,0,i,7,/,0,2,0,-5,
O=c1cc(Cl)[nH]c(=O)n1Cc1ccccc1,0,i,-6,8,5,-2,-1,-13,
CC1CC(C)(C)NC(=S)N1CCC(=O)N1CCN(Cc2ccccc2)CC1 (stereo unspecified),-11,i,-7,4,1,1,3,/,
CSCCC(NC(=O)OC(C)(C)C)C(=O)Oc1ccc2c(=O)c(-c3ccc4c(c3)OCCO4)coc2c1 (stereo unspecified),26,i,10,-339,2,4,4,-48,

# Ordered by SMILES length (lowest first): part of the list above.
SMILES,CSC inhib,Rce1 inh,eIF4H FP inh,Env fusion inh,PABP FP inh,MT1-MMP act inh,MT1-MMP act inh RFP,UUG fidelity,others
O=C(Nc1ccc(N2CCOCC2)cc1)c1cccc(-n2cnnc2)c1,0,i,7,/,0,2,0,-5,
O=C(COc1ccccc1F)Nc1cc(S(=O)(=O)N2CCOCC2)ccc1N1CCOCC1,13,i,0,-9,-5,1,0,-5,
CSCCC(NC(=O)OC(C)(C)C)C(=O)Oc1ccc2c(=O)c(-c3ccc4c(c3)OCCO4)coc2c1 (stereo unspecified),26,i,10,-339,2,4,4,-48,

# Ordered by molecular weight (highest first): 13 of the compounds above
SMILES,CSC inhib,Rce1 inh,eIF4H FP inh,Env fusion inh,PABP FP inh,MT1-MMP act inh,MT1-MMP act inh RFP,UUG fidelity,others
O=C(/C=C/[C@H]1O[C@@H](n2cnc3c(NC(=O)c4ccccc4)ncnc32)[C@H](O)[C@@H]1O)NCc1ccc2c(c1)OCO2,/,/,/,-14,/,4,4,-9,
O=C(COc1ccccc1F)Nc1cc(S(=O)(=O)N2CCOCC2)ccc1N1CCOCC1,13,i,0,-9,-5,1,0,-5,
CCC(=O)N(C)CCc1cc2c(c(OC)c1/C=N/NC(=O)c1ccccc1O)OCO2,-22,i,-2,-18,-4,3,2,-10,
CN1CCN(CCCNC(=O)Cn2ncc3c4ccccc4n(C)c3c2=O)CC1,5,i,8,1,1,2,-2,-21,
CCOC(=O)c1nnc(-c2ccc(C)cc2)nc1Sc1ccccc1Cl,53,i,-6,/,0,-5,-7,-12,
O=C(Nc1cccc(NC(=O)c2nccc3ccccc23)c1)c1ccco1,13,/,-5,/,-4,1,4,/,
O=C(Nc1ccc(N2CCOCC2)cc1)c1cccc(-n2cnnc2)c1,0,i,7,/,0,2,0,-5,
Cc1ccc(C(O)c2ncc(-c3cccc4ccccc34)[nH]2)cc1F (stereo unspecified),/,/,/,-3,/,2,-3,-18,
COc1ccc(NC(=O)N2CCC(c3ccccc3)C2)c(OC)c1 (stereo unspecified),-5,i,-10,-3,1,2,2,-19,
Cc1ccc(C)c(OCC(=O)O/N=C(\N)c2cccnc2)c1,/,i,3,-24,-8,5,-1,-15,
COc1ccc(/C=C/C(=O)C2(O)CCCCC2)cc1OC,7,i,-13,-3,-7,4,-3,-11,
Cc1cccc(C)c1NC(=O)C1(C)CCC(=O)N1C1CC1 (stereo unspecified),/,/,/,4,/,5,3,29,
O=c1cc(Cl)[nH]c(=O)n1Cc1ccccc1,0,i,-6,8,5,-2,-1,-13,

# Next part:
SMILES,CSC inhib,Rce1 inh,eIF4H FP inh,Env fusion inh,PABP FP inh,MT1-MMP act inh,MT1-MMP act inh RFP,UUG fidelity,others
CN(C)c1ccc(NC(=S)N(CCc2ccccc2)C2CC(=O)N(c3c(Cl)cccc3Cl)C2=O)cc1 (stereo unspecified),7,i,-4,/,-1,-3,-2,0,
CCn1c(SCC(=O)NCC(=O)Nc2ccc(F)cc2)nnc1-c1ccncc1,5,i,-1,-15,0,-3,-2,-11,
Cc1ccc(S(=O)(=O)N(CC2CO2)c2ccccc2[N+](=O)[O-])cc1 (stereo unspecified),-10,i,-11,15,-2,-4,2,/,
CCOC(=O)Cn1nc(C)n(-c2cccc(Cl)c2)c1=O,-16,i,-6,2,-8,4,6,223*,
O=C(NC1CCN(C(=O)NCc2ccccc2)CC1)c1ccc(F)cc1,5,i,-7,20,3,2,5,-15,
CCc1nc(NCCC(C)C)c2nnn(Cc3ccccc3)c2n1,5,i,-6,14,-2,2,-10,-20,
CN1C(C(=O)Nc2ccc(F)cc2F)=CC(c2ccco2)=NS1(=O)=O,/,i,2,-7,5,-1,-3,-24,
COc1ccc(C2Oc3ccccc3N2C(C)=O)cc1 (stereo unspecified),1,/,-4,-1,-3,3,1,3,
COc1cccc(CC(=O)N2CCC(n3nccc3NC(=O)C3CC3)CC2)c1,-9,i,-10,3,2,0,2,-9,
N=c1c(S(=O)(=O)c2ccc(Br)cc2)cc2c(=O)n3ccccc3nc2n1Cc1ccco1,36,i,96*,-12,64*,-11,-3,9,eIF4H FP inh retest=66*;PABP FP inh retest=72*
Cn1cc(CN2CCC(C(O)c3cccs3)CC2)c(-c2cccc(Cl)c2)n1 (stereo unspecified),-5,i,4,-10,2,0,-1,/,
COc1ccccc1-n1c(N)c(C(N)=O)sc1=S,-4,i,1,-1,-9,-2,1,-16,
Cc1nn(-c2ccccc2)c2sc(C(=O)NNC(=O)COc3ccccc3)cc12,19,i,-1,-99,-7,1,6,-10,
COc1ccc(/C=C(\NC(=O)c2ccc([N+](=O)[O-])cc2)C(=O)NCCCn2ccnc2)cc1,12,i,-18,-16,-3,1,5,5,
Cc1c(C)c(C)c(S(=O)(=O)NCCc2ccncc2)c(C)c1C,-6,i,-7,-6,-5,-2,-10,-14,
COc1ccc(OC)c(NC(=O)CC(NCCC2=CCCCC2)C(=O)O)c1 (stereo unspecified),/,i,3,/,10,/,/,/,
CCn1c(COc2ccc(C)cc2)nnc1SCC(=O)NCc1ccco1,-1,i,17,24,-1,-3,1,/,
CCOc1cc(CNC2CCCC2)cc(Cl)c1OCc1ccc(F)cc1,44,i,5,/,5,-14,-10,-18,
Cc1cc(N=Cc2cc(Cl)ccc2O)no1,-3,i,-17,/,-5,-2,1,-23,
COc1ccc([C@@H]2[C@@H]3C(=O)N(C(C)(C)C)C(=O)[C@@H]3[C@]3(Cc4ccccc4)C(=O)N(c4cccc(C)c4)C(=O)N23)cc1,-5,i,/,19,/,-2,-2,1,
COc1ccc(-c2ccc(-c3noc(-c4ccc(OC)c(OC)c4)n3)c(OC)n2)cc1,/,/,-21,-53,-16,/,/,/,
Nc1cc(C(=O)OCC(=O)NNC(=O)c2ccccc2)ccc1Cl,3,i,/,-15,/,-1,-8,-23,
CCCCNC(=O)c1cc2c(=O)n3cccc(C)c3nc2n(Cc2ccncc2)c1=N,-8,i,-3,-41,2,2,-4,-20,
CCN1C(=O)C(c2ccc(O)cc2)(c2ccc(O)cc2)c2ccccc21,-5,i,-4,-12,4,3,0,/,
O=C(NCc1ccco1)c1cccc(NS(=O)(=O)c2ccccc2F)c1,2,i,-7,-16,0,-3,-2,-9,
CSc1ccc(CN2CCC(n3nccc3NC(=O)CCCc3ccccc3)CC2)cc1,-15,i,-5,4,-6,5,-8,-14,
O=C(Cc1cc(=O)[nH][nH]1)N/N=C/c1c(F)cccc1Cl,0,i,2,23,6,4,5,/,
O=C(Cn1c(=O)oc2ccccc21)Nc1nc(-c2ccc(Br)cc2)cs1,-12,i,-6,-7,-6,-10,-3,-14,
CCOC(=O)C1(CC)NC(c2ccc(OC)c(OC)c2)C2C(=O)N(c3cccc(C(C)=O)c3)C(=O)C21 (stereo unspecified),-6,i,0,10,9,3,-2,-5,
Cc1ccc(NC(=O)c2c(C)nc(Nc3nc4ccccc4o3)nc2C)cc1,-5,i,4,-20,9,-4,-5,-28,
COc1ccccc1NC(=O)N(CCCN1CCOCC1)Cc1cc2cc3c(cc2[nH]c1=O)OCO3,-1,i,12,/,-4,-3,1,-14,
O=C(CN1CCN(S(=O)(=O)c2ccccc2)CC1)NC(=O)NC1CCCCC1,9,i,6,4,-13,2,-5,/,
O=C1Nc2ccccc2N=C(c2ccccc2)c2ccccc21,-7,i,-7,-19,1,4,-5,-1,
COc1ccccc1CNC(=O)c1c(N)n(CCCN2CCOCC2)c2nc3ccccc3nc12,/,i,6,/,14,-3,-5,-15,
S=c1[nH]nc(Nc2cccc3ccccc23)s1,2,i,2,-11,-2,3,2,-11,
CC(NCc1cccc(OCc2ccccc2)c1)C(O)c1ccccc1 (stereo unspecified),9,i,-1,50,15,-4,-5,/,
CCOC(=O)C1CCN(C(=O)C2(NC(=O)Nc3ccc(F)cc3F)CCCCC2)CC1,-17,/,-6,8,4,-2,2,-6,
CN1CCN(c2ccc(S(=O)(=O)N3CCCCC3)cc2NC(=O)c2ccc(F)cc2F)CC1,5,i,-2,15,-15,-7,-1,-16,
CCN(CC)CCNC(=O)c1ccc2c(c1NCCO)C(=O)c1ccccc1C2=O,55,i,21,-35,22,10,-10,-24,
CN(CC(=O)Nc1ccccc1Br)C(=O)c1ccc(COc2ccccc2)cc1,/,i,-4,4,6,-7,-2,-5,
Nn1c(SCc2ccccc2)nnc1C1CCCCC1,-27,i,-7,-13,1,0,-1,-12,
COc1ccc(CC(=O)OCC(=O)Nc2ccc(Cl)cc2C)cc1,-17,/,/,-1,/,-1,5,-25,
Cc1cc(C)c(S(=O)(=O)Nc2ncn[nH]2)cc1C,2,/,-9,12,-2,2,3,-18,

# Source: PubChem BioAssay
